# P. yoelii liver – exo-erythrocytic parasite development inhibition – imaging, Malaria Box, P. yoelii, HepG2-A16-CD81EGFP, dose response (AID 602156). actives 4.8% (n = 5,700). P. yoelii liver stage in HepG2-A16-CD81EGFP, imaging; first-round cut-off not given here. calls after a first round at 10 µM; hits with a dose series show IC50 in µM; in the data active = a potency from the dose series;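 also: infected cells exposed to compound for 48 hours before fixation; stained parasite area by imaging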
# * = called active by the depositor; i = inactive. A portion of the library (hit frequency here may not be typical).
# The opening three entries (preview)
1. CCCCCCCC(=O)N1CCN(CCN(Cc2ccc(F)cc2)C(=O)c2c(-c3c(F)cccc3Cl)noc2C)CC1
  P. yoelii liver: i

2. CCCn1c(C(CC)N2CCNCC2)nc2ccccc2c1=O (stereo not drawn)
  P. yoelii liver: i

3. CC(C)CNC(=O)c1cnc(NCCC2CCCN2C)nc1NCCc1ccccc1 (stereo not drawn)
  P. yoelii liver: i

# Results, repeating the preview:
1. CCCCCCCC(=O)N1CCN(CCN(Cc2ccc(F)cc2)C(=O)c2c(-c3c(F)cccc3Cl)noc2C)CC1
  P. yoelii liver: i

2. CCCn1c(C(CC)N2CCNCC2)nc2ccccc2c1=O (stereo not drawn)
  P. yoelii liver: i

3. CC(C)CNC(=O)c1cnc(NCCC2CCCN2C)nc1NCCc1ccccc1 (stereo not drawn)
  P. yoelii liver: i

4. O=C(c1cc2n(n1)C(C(F)(F)F)CC(c1ccc3c(c1)OCO3)N2)N1CCN(C(c2ccccc2)c2ccccc2)CC1 (stereo not drawn)
  P. yoelii liver: i

5. CN1[C@@H](C(=O)Nc2ccc3c(c2)OCO3)C[C@@H](c2ccc(F)cc2)NS1(=O)=O
  P. yoelii liver: i

6. O=C(Nc1cc(Cl)cc(Cl)c1)Nc1ccccc1C(=O)NCC1CC1
  P. yoelii liver: i

7. COC(=O)C1=C(O)/C(=C\c2cc(C)n(-c3ccc(Cl)c(Cl)c3)c2C)N=C1C
  P. yoelii liver: i

8. Cc1ccc(-n2nnnc2SCc2nc(-c3cccc([N+](=O)[O-])c3)no2)c(C)c1
  P. yoelii liver: i

9. Cc1nc(Oc2ccc3ccc(=O)oc3c2)c2c3c(sc2n1)CCCCC3
  P. yoelii liver: i

10. Nc1ccc(-c2nc3ccc(Cc4ccc5nc(-c6ccc(N)cc6)[nH]c5c4)cc3[nH]2)cc1
  P. yoelii liver: i

11. COCCOC(=O)C1=C(C)NC2=C(C(=O)CC(c3ccc(OC)c(OC)c3)C2)C1c1ccc(F)cc1 (stereo not drawn)
  P. yoelii liver: i

12. CC[n+]1c(C)cc2c([nH]c3ccccc32)c1C
  P. yoelii liver: i

13. COc1cc(OC)cc(-n2nc(C(=O)NCCCN3CC(C)CC(C)C3)c3ccccc3c2=O)c1 (stereo not drawn)
  P. yoelii liver: i

14. CN(C)C(=O)NCCCCNc1ccnc2cc(Cl)ccc12
  P. yoelii liver: i

15. c1csc(CN2CCc3nc(N4CCCCC4)sc3C2)c1
  P. yoelii liver: i

16. Cc1ccc(CNC(=O)c2cc3sc(Cl)cc3n2C)cc1
  P. yoelii liver: i

17. COC(=O)COc1ccc(/C=C2\SC(=Nc3ccc(F)cc3)NC2=O)cc1
  P. yoelii liver: i

18. CCCCCc1ccc(OCCCC[n+]2cccc(C)c2)c(CCCCC)c1
  P. yoelii liver: 0.035µM*

19. CC[N+](CC)=c1scc(-c2ccc(Br)cc2)s1
  P. yoelii liver: i

20. COC(=O)c1cn([C@@H]2C[C@@H](C(=O)NCc3cccc(C(F)(F)F)c3)N(C3CCN(Cc4ccccc4)CC3)C2)nn1
  P. yoelii liver: i

21. CN(CCCNc1ccnc2cc(Cl)ccc12)C(=O)C(C)(C)CCl
  P. yoelii liver: i

22. CCOc1ccc2[nH]c3c(NCCCN4CCOCC4)ncnc3c2c1
  P. yoelii liver: i

23. CCN1CCN(c2cc(C)c3cc(NC(=O)c4cccc([N+](=O)[O-])c4)ccc3n2)CC1
  P. yoelii liver: i

24. COCC(=O)NCc1ccc(OC2CCN(CC(c3ccccc3)c3ccccc3)CC2)cc1
  P. yoelii liver: i

25. S=P(OCC1C(COP(=S)(c2ccccc2)c2ccccc2)C1(Cl)Cl)(c1ccccc1)c1ccccc1 (stereo not drawn)
  P. yoelii liver: i

26. CCOC(=O)c1cc(S(=O)(=O)NCc2ccc(F)cc2)[nH]n1
  P. yoelii liver: i

27. COc1ccc(/C=C2\SC(=Nc3ccccc3)NC2=O)cc1
  P. yoelii liver: i

28. CN(C)Cc1c(O)ccc2oc(Cc3ccccc3)cc12
  P. yoelii liver: i

29. COCCOC(=O)C1=C(C)NC2=C(C(=O)CC(c3ccc(OC)c(OC)c3)C2)C1c1ccccc1Cl (stereo not drawn)
  P. yoelii liver: i

30. O=C(Cc1ccsc1)N1CCOc2c(cc(-c3csc4ccccc34)cc2OCCc2ccccn2)C1
  P. yoelii liver: i

31. CCOC(=O)c1[nH]nc(C(=O)c2ccccc2)c1-c1ccccc1
  P. yoelii liver: i

32. Fc1cc(F)c(C2SCCN2C(=S)Nc2cccc(C(F)(F)F)c2)c(F)c1 (stereo not drawn)
  P. yoelii liver: i

33. Cc1ccccc1NC(=O)N1CCN(C(=O)c2nc(-c3ccccc3)nc(C)c2C(=O)OC(C)C)CC1C (stereo not drawn)
  P. yoelii liver: i

34. CC(C)CC(=O)OC1C(N2CCCCC2)c2c(ccc(C=CC(=O)N3CCCCC3)c2O)OC1(C)C (stereo not drawn)
  P. yoelii liver: i

35. COc1cccc(CN2CCN(C(c3ccccc3)c3ccccc3)CC2)c1O
  P. yoelii liver: i

36. CCc1nnc2sc(-c3ccc(NC(=O)c4ccc(Br)o4)cc3)nn12
  P. yoelii liver: i

37. CN(CCCNc1ccnc2cc(Cl)ccc12)C(=O)C1CCC1
  P. yoelii liver: i

38. O=C(Cc1ccccc1)Nc1ccc(C(=O)Nc2ccc(-c3nc4ccc(NC(=O)c5ccc(NC(=O)Cc6ccccc6)cc5)c(Cl)c4[nH]3)cc2)cc1
  P. yoelii liver: i

39. CCOc1cc2c(cc1OCC)C(c1cc(OC)c(O)cc1Cl)NCC2 (stereo not drawn)
  P. yoelii liver: i

40. CCc1ccc(NC(=O)C2c3ccccc3C(=O)N(CC(C)C)C2c2cccs2)cc1 (stereo not drawn)
  P. yoelii liver: i

# P. yoelii liver, entries above that show a hit.
18. CCCCCc1ccc(OCCCC[n+]2cccc(C)c2)c(CCCCC)c1
  P. yoelii liver: 0.035µM*

# Part of the list above in order of number of heavy atoms, rising:
16. Cc1ccc(CNC(=O)c2cc3sc(Cl)cc3n2C)cc1
  P. yoelii liver: i

10. Nc1ccc(-c2nc3ccc(Cc4ccc5nc(-c6ccc(N)cc6)[nH]c5c4)cc3[nH]2)cc1
  P. yoelii liver: i

11. COCCOC(=O)C1=C(C)NC2=C(C(=O)CC(c3ccc(OC)c(OC)c3)C2)C1c1ccc(F)cc1 (stereo not drawn)
  P. yoelii liver: i

# Next compounds:
41. Cc1cc(N2CCCC2)nc2ccc(NC(=S)NCCCN3CCN(Cc4ccccc4)CC3)cc12
  P. yoelii liver: i

42. COc1ccc(CN2CSC3=C(C#N)C(c4cccc(OC)c4)CC(=O)N3C2)cc1 (stereo not drawn)
  P. yoelii liver: i

43. CCCCCCCSc1nsc(NC(=O)CCC)n1
  P. yoelii liver: i

44. COc1ccc(NC(=O)c2cccc([N+](=O)[O-])c2C)cc1
  P. yoelii liver: i

45. COc1ccc2c(c1)N(C)/C(=C/c1cccc[n+]1C)S2
  P. yoelii liver: i

46. CSc1cccc(NC(=O)C2C3C=CC4(O3)C2C(=O)N(C2CC2)C4C(=O)NC2CCCCC2)c1 (stereo not drawn)
  P. yoelii liver: i

47. COc1ccc([C@]23Oc4cc(OC)cc(OC)c4[C@@]2(O)[C@@H](O)C(C(=O)N(C)C)[C@@H]3c2ccccc2)cc1 (stereo partly drawn)
  P. yoelii liver: i

48. CC(=O)N(C1=C(N2CCCCC2)C(=O)c2ccccc2C1=O)c1ccc(F)cc1
  P. yoelii liver: i

49. Cc1cccc2cc(CNC34CC5CC(CC(C5)C3)C4)c(N3CCC(N4CCC(O)CC4)CC3)nc12
  P. yoelii liver: i

50. Cc1ccc(C2CC(=O)N3CN(c4ccc(Br)cc4)CSC3=C2C#N)o1 (stereo not drawn)
  P. yoelii liver: i

51. C=CCc1c(C)[nH]c2ccc(Br)cc2c1=O
  P. yoelii liver: 0.18µM*

# Down the list, as entered above:
# Nos. 41 to 47 in P. yoelii liver, in turn: i, i, i, i, i, i, i

# Compound activity as filed in PubChem.
